mut p53 SMM: binders of human mutant p53. small molecule microarray binding, anti-GST fluorescence. calls only. hit rate 0.4% among 17,000. AID 624136;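 active = compounds whose four printed spots each glow above background more than chance allows, each with a p-value under 7%; compounds were printed on slides so no solution concentration is given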;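 also: about 2 pmol printed per array spot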
c-Myc SMM: binds human c-Myc on microarray; hit rate 1.5% among 17,000; P01106; small molecule microarray, His-c-Myc binding, anti-His fluorescence; calls only;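 active = spot fluorescence over background with P-value below 7% in all four replicate spots, showing protein binding; compounds were printed on slides so no solution concentration is given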;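 also: score is binary with 100 for all four spots passing and 0 otherwise; about 2 pmol printed per array spot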
ID4 SMM: binds human ID4 protein on microarray; P47928; small molecule microarray, Flag-ID4 binding, fluorescence F/B; calls only; hit rate 1.2% among 31,000; AID 624137;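 active = spot signal over background at p below 0.07 in all four prints; compounds were printed on slides so no solution concentration is given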;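 also: a binder raises fluorescence above local background on the spot; about 2 pmol printed per array spot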
Target sequence (P47928 whole entry, looked up): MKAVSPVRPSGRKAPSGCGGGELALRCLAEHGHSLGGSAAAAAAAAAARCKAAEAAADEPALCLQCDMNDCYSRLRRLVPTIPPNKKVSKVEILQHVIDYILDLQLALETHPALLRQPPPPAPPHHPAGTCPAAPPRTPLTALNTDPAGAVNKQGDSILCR
STAT3 binder: STAT3 (human) binding. P40763. Small molecule microarray, His-STAT3 binding, anti-His fluorescence. calls only. hit rate 0.2% among 17,000. AID 624138;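 active = compounds whose four printed spots each show fluorescence over background unusually high for their array block, chance value under 7%; compounds were printed on slides so no solution concentration is given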;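 also: about 2 pmol printed per array spot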
Target sequence (P40763 whole entry, looked up): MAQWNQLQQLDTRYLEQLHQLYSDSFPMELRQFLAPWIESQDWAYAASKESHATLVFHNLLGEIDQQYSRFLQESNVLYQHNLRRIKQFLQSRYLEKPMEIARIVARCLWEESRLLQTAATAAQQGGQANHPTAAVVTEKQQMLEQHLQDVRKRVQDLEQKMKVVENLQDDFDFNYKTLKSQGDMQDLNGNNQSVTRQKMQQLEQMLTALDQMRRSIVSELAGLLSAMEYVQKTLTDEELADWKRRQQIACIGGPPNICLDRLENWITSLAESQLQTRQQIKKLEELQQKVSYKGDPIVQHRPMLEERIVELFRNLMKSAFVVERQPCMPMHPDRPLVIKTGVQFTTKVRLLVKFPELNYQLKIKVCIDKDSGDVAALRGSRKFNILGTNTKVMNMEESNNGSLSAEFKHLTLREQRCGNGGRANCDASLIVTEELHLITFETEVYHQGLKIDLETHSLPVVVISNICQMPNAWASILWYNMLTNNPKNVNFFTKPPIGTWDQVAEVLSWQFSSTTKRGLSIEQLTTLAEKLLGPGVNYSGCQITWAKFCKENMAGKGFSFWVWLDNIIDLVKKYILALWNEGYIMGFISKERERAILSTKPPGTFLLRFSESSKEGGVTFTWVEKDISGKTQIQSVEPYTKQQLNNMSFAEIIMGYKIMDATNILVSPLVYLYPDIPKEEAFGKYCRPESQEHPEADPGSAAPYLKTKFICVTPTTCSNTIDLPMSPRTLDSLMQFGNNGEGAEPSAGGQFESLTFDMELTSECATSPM
Calls only; i = inactive; x = no result given; + = active, no number.

SMILES	mut p53 SMM	c-Myc SMM	ID4 SMM	STAT3 binder
COC(=O)C(CC#Cc1ccc2c(c1)[C@]1(C(=O)N2)[C@H](c2ccccc2OCCO)N2[C@H](c3ccccc3)[C@H](c3ccccc3)OC(=O)[C@H]2[C@@H]1C(=O)O)C(=O)OC	i	i	i	i
C[C@]12CCC3c4ccc(OC(=O)c5ccccc5)cc4CCC3C1CCC2=O (stereo partly specified)	i	i	i	i
CCCN(C)C[C@@H]1Oc2ncc(C#Cc3ccccc3)cc2C(=O)N([C@H](C)CO)C[C@@H]1C	i	i	i	i
C[C@@H]1CN([C@H](C)CO)C(=O)Cc2cc(NC(=O)Nc3ccc4c(c3)OCO4)ccc2O[C@H]1CN(C)C(=O)NC1CCCCC1	i	i	i	i
C[C@@H]1CN([C@H](C)CO)C(=O)c2cc(NS(=O)(=O)c3ccccc3)ccc2O[C@@H](C)CCCCO[C@H]1CN(C)Cc1ccncc1	i	i	i	i
C[C@@H]1CN([C@@H](C)CO)C(=O)c2cc(NC(=O)Nc3ccc4c(c3)OCO4)ccc2O[C@H]1CN(C)Cc1ccncc1	i	i	+	i
Cc1ccc([N+](=O)[O-])cc1NC(=O)CCN1C(=O)c2ccccc2C1=O	i	i	i	i
Cc1noc(C)c1NC(=O)N(C)C[C@H]1Oc2ccc(NC(=O)Nc3ccc4c(c3)OCO4)cc2C(=O)N([C@@H](C)CO)C[C@@H]1C	i	i	i	i
Cc1noc(C)c1S(=O)(=O)Nc1cccc2c1O[C@H](CN(C)S(=O)(=O)c1ccc(Cl)cc1)[C@H](C)CN([C@@H](C)CO)C2=O	i	i	x	i
CCOC(=O)c1c(NC(=O)c2nc3nc(C)cc(C(F)F)n3n2)sc(C)c1C	i	i	i	i
CNC[C@@H]1Oc2c(NS(C)(=O)=O)cccc2C(=O)N([C@@H](C)CO)C[C@H]1C	i	i	i	i
Cc1noc(C)c1S(=O)(=O)Nc1ccc2c(c1)C(=O)N([C@@H](C)CO)C[C@H](C)[C@@H](CN(C)C(=O)Cc1ccccc1)OCCCC[C@H](C)O2	i	i	i	i
COc1ccc(NC(=O)Nc2ccc3c(c2)C(=O)N([C@H](C)CO)C[C@H](C)[C@@H](CN(C)S(=O)(=O)c2cccs2)O3)cc1	i	i	i	i
C[C@H](CO)N1C[C@H](C)[C@H](CN(C)Cc2ccc(Cl)c(Cl)c2)Oc2c(NS(C)(=O)=O)cccc2C1=O	i	i	i	i
C=CC[C@]1(C(=O)NCCCOC)COC(c2ccc(OCCCO)cc2)=N1	i	+	i	i
C[C@H](CO)N1C[C@H](C)[C@@H](CN(C)Cc2ccncc2)Oc2c(NC(=O)Nc3ccc(C(F)(F)F)cc3)cccc2C1=O	i	i	i	i
C[C@H](CO)N1C[C@H](C)[C@H](CN(C)C(=O)Nc2ccc3c(c2)OCO3)Oc2ncc(Br)cc2C1=O	i	i	i	i
COc1ccc(CN(C)C[C@H]2Oc3c(NC(=O)Nc4cccc5ccccc45)cccc3C(=O)N([C@H](C)CO)C[C@H]2C)cc1	i	i	i	i
COc1ccc(NC(=O)N(C)C[C@@H]2Oc3ncc(-c4cccc(C(F)(F)F)c4)cc3C(=O)N([C@H](C)CO)C[C@@H]2C)cc1	i	i	i	i
COCCOC(=O)N1C(=O)[C@@]2(c3ccccc31)[C@H](c1ccc(O)cc1)N1[C@H](c3ccccc3)[C@H](c3ccccc3)OC(=O)[C@H]1[C@@H]2C(=O)NC[C@H](O)c1ccccc1	i	i	i	i

In another format: results already given
| compound | mut p53 SMM | c-Myc SMM | ID4 SMM | STAT3 binder |
| --- | --- | --- | --- | --- |
| Cc1noc(C)c1S(=O)(=O)Nc1ccc2c(c1)C(=O)N([C@@H](C)CO)C[C@H](C)[C@@H](CN(C)C(=O)Cc1ccccc1)OCCCC[C@H](C)O2 | i | i | i | i |
| COc1ccc(NC(=O)Nc2ccc3c(c2)C(=O)N([C@H](C)CO)C[C@H](C)[C@@H](CN(C)S(=O)(=O)c2cccs2)O3)cc1 | i | i | i | i |
| C[C@H](CO)N1C[C@H](C)[C@H](CN(C)Cc2ccc(Cl)c(Cl)c2)Oc2c(NS(C)(=O)=O)cccc2C1=O | i | i | i | i |
| C=CC[C@]1(C(=O)NCCCOC)COC(c2ccc(OCCCO)cc2)=N1 | i | + | i | i |
| C[C@H](CO)N1C[C@H](C)[C@@H](CN(C)Cc2ccncc2)Oc2c(NC(=O)Nc3ccc(C(F)(F)F)cc3)cccc2C1=O | i | i | i | i |
| C[C@H](CO)N1C[C@H](C)[C@H](CN(C)C(=O)Nc2ccc3c(c2)OCO3)Oc2ncc(Br)cc2C1=O | i | i | i | i |
| COc1ccc(CN(C)C[C@H]2Oc3c(NC(=O)Nc4cccc5ccccc45)cccc3C(=O)N([C@H](C)CO)C[C@H]2C)cc1 | i | i | i | i |

Additional compounds.
SMILES	mut p53 SMM	c-Myc SMM	ID4 SMM	STAT3 binder
C[C@@H]1CCCCO[C@H](CN(C)C(=O)c2ccccc2)[C@@H](C)CN([C@H](C)CO)C(=O)c2cc(NS(=O)(=O)c3ccccc3)ccc2O1	i	i	i	i
C[C@@H]1CN([C@@H](C)CO)C(=O)CCCn2cc(nn2)CO[C@@H]1CN(C)C(=O)CCCN(C)C	i	i	i	i
C[C@@H]1CN([C@@H](C)CO)C(=O)c2cc(NC(=O)Nc3ccc(F)cc3)ccc2O[C@H]1CN(C)S(=O)(=O)c1cn(C)cn1	i	i	i	i
C/C=C1/CN2CCC1C(CO)(C(=O)OC)c1[nH]c3ccccc3c1C2 (stereo unspecified)	i	i	i	i
O=C(C1=C[C@@H](C2CC2)C[C@@H](OCc2ccc(CO)cc2)O1)N1CCOCC1	i	i	i	i
C[C@@H]1CN([C@H](C)CO)C(=O)Cc2cc(NC(=O)NC3CCCCC3)ccc2O[C@H]1CN(C)S(=O)(=O)c1cn(C)cn1	i	i	i	i
CCC#CCN(Cc1ccccc1Br)[C@H](/C=C/c1ccccc1)[C@@H](O)Cc1ccccc1	i	i	i	i
COc1ccccc1NC(=O)N(C)C[C@@H]1OCc2cn(nn2)CCCC(=O)N([C@H](C)CO)C[C@@H]1C	i	i	i	i
O=C1O[C@H](c2ccccc2)[C@H](c2ccccc2)N2[C@H]1[C@@H](C(=O)N1CCN(c3ncccn3)CC1)[C@]1(C(=O)Nc3ccc(C#CCCO)cc31)[C@H]2c1ccc(O)cc1	i	i	x	i
O=C(CCN1CCCCC1)N1N=C(c2ccc(Cl)cc2)CC1c1ccco1 (stereo unspecified)	i	i	i	i
CNC[C@@H]1Oc2ncc(-c3ccccc3)cc2C(=O)N([C@H](C)CO)C[C@@H]1C	i	i	i	i
C=CC(C)(O)C(O)CC1C(=C)CCC2C(C)(C(=O)O)CCCC12C (stereo unspecified)	i	i	i	i
C[C@H](CO)N1C[C@H](C)[C@@H](CN(C)C(=O)Nc2ccc(C(F)(F)F)cc2)Oc2ccc(NC(=O)Nc3ccc4c(c3)OCO4)cc2C1=O	i	i	i	i
CCOc1cc(CC(=O)N[C@@H](CC(C)C)c2ccccc2N2CCCCC2)ccc1C(=O)O	i	i	i	i
COC(=O)N(C)C[C@@H]1OCc2cnnn2CCCC(=O)N([C@H](C)CO)C[C@H]1C	i	i	i	i
COc1ccc(C2CC(C(F)(F)F)n3ncc(C(=O)Nc4sc5c(c4C#N)CCC(C)C5)c3N2)cc1OC (stereo unspecified)	i	i	i	i
C[C@@H]1CCCCO[C@@H](CN(C)C(=O)Nc2cccc3ccccc23)[C@H](C)CN([C@H](C)CO)C(=O)c2cc(NC(=O)c3ccncc3)ccc2O1	i	+	i	i
CC(C)NC(=O)Nc1ccc2c(c1)C(=O)N([C@@H](C)CO)C[C@@H](C)[C@@H](CN(C)S(=O)(=O)c1ccc(F)cc1)OCCCC[C@@H](C)O2	i	i	x	i
O=C1CC(c2ccc(O)cc2)Oc2ccccc21 (stereo unspecified)	i	i	i	i
COC1CC(O[C@H]2CC[C@]3(C)C4CC[C@@]5(C)C(=O)[C@]4(CC[C@@H]3C2)CC[C@@H]5C2=CC(=O)OC2)OC(C)C1OC1OC(COC2OC(CO)C(O)C(O)C2O)C(O)C(O)C1O (stereo partly specified)	i	i	i	i
C[C@H](CO)N1C[C@H](C)[C@H](CN(C)C(=O)NC2CCCCC2)Oc2ccc(NC(=O)Cn3cnnn3)cc2CC1=O	i	i	i	i
COC(=O)N(C)C[C@@H]1OCc2cn(nn2)CCCC(=O)N([C@@H](C)CO)C[C@H]1C	i	i	i	i
C[C@@H]1CN([C@@H](C)CO)C(=O)c2cccc(NC(=O)C3CCOCC3)c2O[C@@H]1CN(C)S(=O)(=O)c1ccc(Cl)cc1	i	i	i	i
C[C@H](CO)N1C[C@H](C)[C@H](CN(C)S(=O)(=O)c2cccs2)OCCCC[C@H](C)Oc2ccc(NC(=O)CCCN(C)C)cc2C1=O	i	i	i	i
C[C@@H]1CN([C@H](C)CO)C(=O)c2cc(NC(=O)NC3CCCCC3)ccc2O[C@@H]1CN(C)S(=O)(=O)c1cn(C)cn1	i	i	i	i
O=C(CC1C(=O)N(c2ccc(F)cc2)C(=S)N1CCN1CCOCC1)Nc1ccc(F)cc1 (stereo unspecified)	i	i	i	i
C[C@@H]1CCCCO[C@@H](CN(C)C)[C@H](C)CN([C@@H](C)CO)C(=O)c2cc(NC(=O)c3ccccc3)ccc2O1	i	i	i	i
O=C1c2ccccc2C(=O)N1[C@@H]1CCN(Cc2cccc(OCCO)c2)C1	i	i	x	i
C[C@@H]1CN([C@H](C)CO)C(=O)c2cc(NS(=O)(=O)c3ccccc3)ccc2O[C@@H]1CN(C)C(=O)NC1CCCCC1	i	i	i	i
Cc1cc(C(=O)Nc2cccc3c2O[C@H](CN(C)CC2CC2)[C@@H](C)CN([C@H](C)CO)C3=O)n(C)n1	i	i	i	i
C[C@@H]1CN([C@@H](C)CO)C(=O)CCCn2nncc2CO[C@@H]1CN(C)C(=O)c1ccccc1	i	i	i	i
C[C@@H]1CN([C@@H](C)CO)C(=O)c2cc(N(C)C)ccc2O[C@H]1CN(C)S(=O)(=O)c1ccccc1	i	i	i	i
C[C@@H]1CCCCO[C@@H](CN(C)C)[C@H](C)CN([C@@H](C)CO)C(=O)c2cc(NC(=O)CCCN(C)C)ccc2O1	i	i	i	i
Cc1noc(C)c1NC(=O)N(C)C[C@H]1OCCCC[C@@H](C)Oc2ccc(NC(=O)c3ccncc3)cc2C(=O)N([C@H](C)CO)C[C@H]1C	i	i	i	i
COc1ccc(NC(=S)NCCn2cc(Br)cn2)cc1OC	i	i	i	i
C[C@@H]1CN([C@H](C)CO)C(=O)CCCn2cc(nn2)CO[C@@H]1CN(C)S(=O)(=O)c1ccc2c(c1)OCCCO2	i	i	i	i
C[C@@H]1CCCCO[C@H](CN(C)C(=O)C2CCCCC2)[C@H](C)CN([C@H](C)CO)C(=O)c2cc(NS(=O)(=O)c3cccs3)ccc2O1	i	i	i	i
CCNS(=O)(=O)c1cc(C)ccc1-n1cnnn1	i	i	i	i
COc1ccc(-c2cc(=O)oc3cc(OC(C(=O)O)c4ccccc4)ccc23)cc1 (stereo unspecified)	i	i	i	i
COc1ccccc1NC(=O)CSc1nnc(-c2ccc([N+](=O)[O-])cc2)n1-c1ccccc1	i	i	i	i
CCOC(=O)c1c(NC(=O)C2CC(Cl)=CCC2C(=O)O)sc2c1CC(C)CC2 (stereo unspecified)	i	i	i	i
COc1ccc(C(=O)NCC(=O)Nc2cccc(C(F)(F)F)c2)cc1	i	i	i	i
COc1ccc(COCC23N=C4SCc5ccccc5CN4[C@H](c4ccccc4O2)[C@H]3CO)cc1	i	i	i	i
COC(=O)c1c(NC(=O)C2C3C=CC(C3)C2C(=O)O)sc(C)c1C (stereo unspecified)	i	i	i	i
CCOc1ccccc1OCC(=O)Nc1cccc([N+](=O)[O-])c1	i	i	i	i
Cc1cc(N)nc(COc2ccc([N+](=O)[O-])cc2)n1	i	i	i	i
C[C@H](CO)N1C[C@H](C)[C@@H](CN(C)Cc2ccccc2)Oc2c(NC(=O)C3CC3)cccc2C1=O	i	i	i	i
COc1cc([N+](=O)[O-])ccc1NC(=O)Nc1nn(Cc2ccc(Cl)c(Cl)c2)cc1Cl	i	i	i	i
C[C@@H]1CN([C@H](C)CO)C(=O)CCCn2cc(nn2)CO[C@@H]1CN(C)C(=O)CCCN(C)C	i	i	i	i
CNC[C@H]1Oc2ccc(NC(=O)Nc3c(C)noc3C)cc2CC(=O)N([C@H](C)CO)C[C@H]1C	i	i	i	i
More structures:
SMILES	mut p53 SMM	c-Myc SMM	ID4 SMM	STAT3 binder
C[C@@H]1CN([C@@H](C)CO)C(=O)c2cc(NC(=O)Nc3cccc4ccccc34)ccc2O[C@@H](C)CCCCO[C@H]1CN(C)C	i	i	i	i
O=C(NC(CO)Cc1ccccc1)c1ccccc1 (stereo unspecified)	i	i	i	i
CC(=O)Nc1ccc(C(=O)Nc2ccccc2[N+](=O)[O-])cc1	i	i	x	i
C[C@H]1CCCCO[C@@H](CN(C)C)[C@@H](C)CN([C@@H](C)CO)C(=O)c2cc(NS(=O)(=O)c3ccc(Cl)cc3)ccc2O1	i	i	i	i
C[C@H]1CN([C@@H](C)CO)C(=O)c2cc(NC(=O)Cn3cnnn3)ccc2O[C@@H]1CN(C)CC1CCCCC1	i	i	x	i
C[C@@H]1CN([C@@H](C)CO)C(=O)c2cc(N(C)C)ccc2O[C@@H](C)CCCCO[C@H]1CN(C)C(=O)Nc1cccc2ccccc12	i	+	i	i
Cc1noc(C)c1S(=O)(=O)N(C)C[C@@H]1Oc2ccc(NS(=O)(=O)c3cn(C)cn3)cc2CC(=O)N([C@@H](C)CO)C[C@@H]1C	i	i	i	i

Screening data (PubChem)

These rows are one share of the data; count on the stated rates, not on these rows.
